# Source: PubChem
# DUX4 txn inh: inhibitors of DUX4-driven ZSCAN4 reporter expression, primary screen, 293T cells, Gaussia and Italica luciferase | 293T-iDUX4 ZSCAN4-Gaussia luciferase reporter, 24 h; active compounds read low | activity change, negative = inhibition, % (concentration not given with the values) | actives 0.8% (n = 37,000);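 active = -10% or lower and over 25 points stronger than a control reporter; inconclusive = -10% or lower with a smaller gap; inactive = above -10%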;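 also: 0% = median of neutral control wells and -100% = median of positive control wells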
# DUX4 txn inh difference: recorded beside DUX4 txn inh, whose call it bears; Gaussia minus Italica difference, %; measured here: selective DUX4 reporter inhibition;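 worked out from the two reporters; negative = selective loss of the DUX4 reporter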
# DUX4 txn inh control: further read-out of DUX4 txn inh, marked with its call; activity change, negative = inhibition, %; measured here: Italica tet-on control reporter;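 0 = neutral control and -100 = positive control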
# An asterisk follows results filed as active; ? = inconclusive; / = not tested or not shown; ! = not confirmed by another sample. This is a subset; rates above refer to the full screens.
SMILES	DUX4 txn inh	DUX4 txn inh difference	DUX4 txn inh control
COc1ccc2c3c([nH]c2c1)[C@@H](CO)N(C(=O)c1ccc(F)cc1)CC31CCN(C(=O)NC(C)C)CC1	-16*	-34*	18*
O=C(c1ccc(F)cc1)N1CCCCN2[C@H](C1)[C@H](c1ccc(-c3ccccc3)cc1)[C@@H]2CO	?	/	/
C[C@H](O)C#Cc1ccc([C@@H]2[C@@H](CO)N3CCCCN(C(=O)c4ccncc4)C[C@@H]23)cc1	17	-1	19
CN(C)C(=O)c1cccc(-c2ccc3c(c2)[C@@H]2[C@@H](CCN2C(=O)c2ccc4c(c2)OCO4)[C@H](CO)N3)c1	?	/	/
C[C@@H]1CN([C@H](C)CO)C(=O)CCCn2nncc2CO[C@@H]1CN(C)Cc1ccncc1	5	11	-6.3
COc1ccc2c3c(n(C)c2c1)[C@@H](CO)N(C(=O)NC1CCCC1)CC31CN(C)C1	7	-6	13
CC(C)NC(=O)N1CC2(C1)[C@@H](c1ccccc1)[C@@H](CO)N2C(=O)C1CC1	13	9	4.0
O=S(=O)(c1ccccc1F)N1CCCCN2[C@@H](CO)[C@@H](c3ccc(-c4cncnc4)cc3)[C@@H]2C1	17	20	-2.9
CC(C)NC(=O)N[C@H]1CC[C@H](CCNC(=O)C2CCOCC2)O[C@@H]1CO	3	2	1.3
Cc1ccc(-c2ccc(C3[C@@H]4CN(Cc5cccnc5)C[C@H]3N4)cc2)cc1 (stereo partly specified)	-22*!	-32*!	9.4*!
COC(=O)N(C)C[C@@H]1OCc2ccccc2-c2ccccc2C(=O)N([C@H](C)CO)C[C@@H]1C	8	10	-1.4
CN1CCN(C(=O)C[C@H]2CC[C@H]3[C@@H](COC[C@H](O)CN3CC3CCOCC3)O2)CC1	5	-1	5.4
C[C@@H]1CCCCO[C@@H](CN(C)S(=O)(=O)c2cn(C)cn2)[C@@H](C)CN([C@@H](C)CO)C(=O)c2cc(NS(=O)(=O)c3cccs3)ccc2O1	3	3	-0.1
COC(=O)C[C@H]1C[C@H]2c3cc(NC(=O)C4CCOCC4)ccc3O[C@H]2[C@H](CO)O1	-2	-8	5.5
COCC(=O)N1CC2(C1)[C@@H](c1ccccc1)[C@@H](CO)N2C(=O)c1cccnc1	7	1	5.5
COc1ccc(NC(=O)N(C)C[C@H]2OCc3ccccc3-c3c(n(C)c4ccccc34)C(=O)N([C@@H](C)CO)C[C@H]2C)c(OC)c1	?	/	/
O=C(C[C@H]1CC[C@H](NC(=O)Nc2cc(F)ccc2F)[C@@H](CO)O1)Nc1ccc(-c2ccccc2)cc1	?	/	/
C[C@H](CO)N1C[C@H](C)[C@@H](CN(C)C(=O)c2ccncc2)OCc2cn(nn2)CCCC1=O	-5	-1	-4.1
N#C[C@@H]1[C@H](c2ccc(C3=CCCC3)cc2)[C@H](CO)N1S(=O)(=O)c1cccc(F)c1	4	-2	5.4
COc1ccc2c3c(n(C)c2c1)[C@@H](CO)N(Cc1cccc(Cl)c1)CC31CCN(C(=O)C2CC2)CC1	?	/	/
COCC(=O)N1[C@H](C#N)[C@H](c2ccccc2C2=CCCC2)[C@H]1CO	12	3	9.2
CC(C)C#Cc1ccc2c(c1)O[C@@H](CN(C)C(=O)c1ccncc1)[C@H](C)CN([C@@H](C)CO)S2(=O)=O	-1	-4	3.2
CCC(=O)N1[C@H](C(=O)N(C)C)[C@@H](CO)[C@@H]2Cn3c(ccc(-c4ccc(F)cc4)c3=O)[C@@H]21	6	9	-3.5
CO[C@H](CN(C)C(=O)C1CCOCC1)[C@H](C)CN(C(=O)Nc1ccc(F)cc1)[C@H](C)CO	1	0	0.6
CC(C)C#Cc1ccc([C@H]2[C@H](C#N)N(C(=O)CN(C)C)[C@H]2CO)cc1	3	2	0.9
COc1ccc2c3c(n(C)c2c1)[C@H](CO)N(Cc1ccc(F)cc1)CC31CCN(C)CC1	-2	-3	0.7
COc1cccc(S(=O)(=O)Nc2ccc3c(c2)[C@@H]2C[C@@H](CC(=O)NCC(F)(F)F)O[C@@H](CO)[C@@H]2O3)c1	9	7	1.7
COc1ccc(C#Cc2ccc([C@@H]3[C@@H](CO)N4CCCCN(Cc5ccncc5)C[C@H]34)cc2)cc1	-26*	-32*	6.2*
CO[C@H]1CN(C)C(=O)c2cc(NC(=O)C3CCOCC3)ccc2OC[C@@H](C)N(C(C)=O)C[C@H]1C	8	6	2.2
Cc1ccccc1S(=O)(=O)Nc1ccc2c(c1)C(=O)N(C)[C@H]1CC[C@@H](CC(=O)O)O[C@@H]1CO2	0	0	-0.1
CN1C(=O)c2cc(NC(=O)c3ccc(F)cc3)ccc2OC[C@@H]2O[C@@H](CC(=O)N3CCOCC3)CC[C@@H]21	1	2	-0.5
C/C=C/c1ccc([C@H]2[C@H](CO)N(C(C)=O)[C@H]2CN(C)C(=O)c2ccccn2)cc1	3	-1	4.4
COc1cccc(NC(=O)C[C@H]2CC[C@H]3[C@H](COc4ccc(NC(=O)c5ccccc5F)cc4C(=O)N3C)O2)c1	4	-2	6.4
CO[C@H]1CN(C)C(=O)c2ccc(NC(=O)C3CC3)cc2OC[C@@H](C)N(C(C)=O)C[C@@H]1C	-1	-6	5.1
COc1cccc(-c2cccc(-c3nc(C(=O)Nc4ccc(-c5ccccc5)cc4)cc4c3[C@@H](CCO)N(S(=O)C(C)(C)C)C4)c2)c1 (stereo partly specified)	-2	0	-1.9
CN(C)CCCNC(=O)C[C@@H]1CC[C@H]2[C@@H](COC[C@@H](O)CN2Cc2ccc(Cl)c(Cl)c2)O1	0	8	-8.1
CCCNC(=O)[C@H]1[C@H](CO)[C@H]2Cn3c(ccc(/C=C/c4ccccc4)c3=O)[C@@H]1N2CCC	-4	-5	1.0
COc1ccc(CNC(=O)C[C@@H]2CC[C@H]3[C@H](COc4ccc(NC(=O)C5CC5)cc4C(=O)N3C)O2)cc1	-6	-5	-0.7
O=C(C[C@H]1CC[C@H]2[C@@H](COC[C@H](O)CN2CCC(F)(F)F)O1)NCc1ccc(Oc2ccccc2)cc1	?	/	/
COCCNC(=O)C[C@@H]1C[C@H]2c3cc(NC(=O)NC4CCCC4)ccc3O[C@H]2[C@H](CO)O1	-4	-6	1.9
N#C[C@H]1[C@H](c2ccccc2C2=CCCC2)[C@@H](CO)N1C(=O)Cc1ccncc1	?	/	/
C[C@@H]1CCCCO[C@@H](CN(C)C(=O)C2CCCCC2)[C@@H](C)CN([C@H](C)CO)C(=O)c2cc(N(C)C)ccc2O1	1	-1	2.4
Cc1noc(C)c1NC(=O)Nc1ccc2c(c1)C(=O)N(C)[C@H]1CC[C@H](CC(=O)N[C@@H]3CCN(Cc4ccccc4)C3)O[C@@H]1CO2	-1	-4	2.4
C/C=C/c1ccc([C@H]2[C@@H](CO)N(C(=O)C3CC3)C23CN(C(=O)NC(C)C)C3)cc1	2	4	-1.7
O=C(NC1Cc2ccccc2C1)[C@@H]1[C@@H](CO)[C@@H]2Cn3c(ccc(C4=CCCC4)c3=O)[C@H]1N2CC1CC1	4	-1	4.6
O=C(c1ccccc1)N1CC2(C1)[C@H](c1ccccc1)[C@@H](CO)N2C(=O)CC1CC1	4	1	3.2
O=C(C[C@@H]1C[C@H]2c3cc(NS(=O)(=O)c4ccc(F)cc4)ccc3O[C@H]2[C@@H](CO)O1)NCc1ccc(Cl)cc1	?	/	/
CS(=O)(=O)N1Cc2cc(C(=O)NCC3CC3)nc(-c3cccc(-c4cncnc4)c3)c2[C@H]1CCO	3	14	-12
O=C(C[C@H]1C[C@H]2c3cc(NC(=O)Cc4ccncc4)ccc3O[C@H]2[C@@H](CO)O1)NCc1cccc(F)c1	-3	-13	10
C[C@H](NC(=O)C[C@H]1CC[C@@H]2[C@H](COC[C@@H](O)CN2C(=O)Nc2cc(Cl)cc(Cl)c2)O1)c1ccccc1	?	/	/

# Compound profiles, as listed above. Order of values: DUX4 txn inh, DUX4 txn inh difference, DUX4 txn inh control
# CN1C(=O)c2cc(NC(=O)c3ccc(F)cc3)ccc2OC[C@@H]2O[C@@H](CC(=O)N3CCOCC3)CC[C@@H]21 is listed as 1, 2, -0.5
# C[C@@H]1CN([C@H](C)CO)C(=O)CCCn2nncc2CO[C@@H]1CN(C)Cc1ccncc1 is listed as 5, 11, -6.3
# COc1ccc2c3c([nH]c2c1)[C@@H](CO)N(C(=O)c1ccc(F)cc1)CC31CCN(C(=O)NC(C)C)CC1 is listed as -16*, -34*, 18*

# Looked up one by one from above:
SMILES	DUX4 txn inh	DUX4 txn inh difference	DUX4 txn inh control
N#C[C@H]1[C@H](c2ccccc2C2=CCCC2)[C@@H](CO)N1C(=O)Cc1ccncc1	?	/	/
C[C@@H]1CCCCO[C@@H](CN(C)C(=O)C2CCCCC2)[C@@H](C)CN([C@H](C)CO)C(=O)c2cc(N(C)C)ccc2O1	1	-1	2.4
O=C(C[C@@H]1C[C@H]2c3cc(NS(=O)(=O)c4ccc(F)cc4)ccc3O[C@H]2[C@@H](CO)O1)NCc1ccc(Cl)cc1	?	/	/
C[C@H](NC(=O)C[C@H]1CC[C@@H]2[C@H](COC[C@@H](O)CN2C(=O)Nc2cc(Cl)cc(Cl)c2)O1)c1ccccc1	?	/	/

# (next part)
SMILES	DUX4 txn inh	DUX4 txn inh difference	DUX4 txn inh control
C/C=C/c1ccc2c(c1)O[C@H](CN(C)Cc1ccc(C(=O)O)cc1)[C@H](C)CN([C@H](C)CO)S2(=O)=O	-3	-2	-1.2
O=S(=O)(NC[C@H]1[C@H](c2ccccc2)[C@H](CO)N1CC1CC1)c1ccccc1	-1	1	-1.6
COc1cccc(NC(=O)N(C)C[C@H]2OCc3ccccc3-c3c(n(C)c4ccccc34)C(=O)N([C@@H](C)CO)C[C@H]2C)c1	0	3	-3.0
CN1CCN(C(=O)C[C@H]2C[C@@H]3c4cc(NS(C)(=O)=O)ccc4O[C@@H]3[C@H](CO)O2)CC1	6	0	5.7
OC[C@@H]1[C@@H](c2ccc(C#CC3(O)CCCC3)cc2)[C@@H]2CN(Cc3ccncc3)CCCCN12	11	-6	17
C/C=C/c1ccc([C@@H]2[C@@H](CN(CC)C(=O)CC)N(C(C)=O)[C@H]2CO)cc1	-9	-10	1.1
CCCNC(=O)N(C)C[C@H]1Oc2ncc(C#CCc3ccccc3)cc2C(=O)N([C@H](C)CO)C[C@H]1C	-3	2	-4.9
CCCNC(=O)N(C)C[C@@H]1Oc2cc(C#C[C@@H](C)O)ccc2S(=O)(=O)N([C@@H](C)CO)C[C@H]1C	3	-1	4.0
CCC(=O)N1[C@H](CO)[C@@H](c2ccccc2)C12CN(Cc1ccccc1F)C2	?	/	/
CNC[C@H]1Oc2ccc(NS(=O)(=O)c3cn(C)cn3)cc2CC(=O)N([C@H](C)CO)C[C@@H]1C	-4	-3	-1.1
CC(C)[C@@H](C)NC(=O)N(C)C[C@H]1OCc2ccccc2-c2c(n(C)c3ccccc23)C(=O)N([C@@H](C)CO)C[C@@H]1C	-2	6	-7.7
CN(C)CC(=O)N1C[C@@H]2[C@H](c3ccccc31)[C@H](CO)N2Cc1cc(F)ccc1F	1	-4	4.7
O=C(C[C@H]1C[C@@H]2c3cc(NC(=O)c4ccc5c(c4)OCO5)ccc3O[C@@H]2[C@@H](CO)O1)NCCN1CCCCC1	8	7	0.3
Fc1ccc(-c2ccc(C3[C@@H]4CN(Cc5cccc(F)c5)C[C@H]3N4)cc2)cc1 (stereo partly specified)	-36*!	-35*	-1.1*
O=C(C[C@@H]1C[C@@H]2c3cc(NS(=O)(=O)c4ccc(F)cc4)ccc3O[C@@H]2[C@H](CO)O1)N1CCc2ccccc2C1	-6	3	-8.8
CC(=O)N1CCCCN2[C@H](CO)[C@@H](c3ccc(-c4ccncc4)cc3)[C@@H]2C1	12	-1	13
COc1cccc(NC(=O)N[C@@H]2CC[C@@H](CC(=O)NCc3ccccn3)O[C@H]2CO)c1	1	-3	3.5
COc1ccc2c3c([nH]c2c1)[C@@H](CO)N(Cc1cccnc1)CC31CCN(C(=O)CN(C)C)CC1	14	8	5.7
C[C@H]1CN([C@@H](C)CO)C(=O)c2cc(NC(=O)Nc3ccccc3)ccc2O[C@H]1CN(C)Cc1ccccc1	0	-2	2.5
Cc1ccc(S(=O)(=O)N[C@@H]2CC[C@@H](CC(=O)NCc3ccncn3)O[C@@H]2CO)cc1	3	2	0.5
CCCC(=O)N1CC2(C1)CN(C(=O)CC1CC1)[C@@H](CO)c1c2c2ccc(OC)cc2n1C	10	6	4.2
C/C=C/c1ccc([C@H]2[C@@H](CO)N(C(=O)CC)C23CN(C(=O)c2ccccc2)C3)cc1	11	17	-5.4
CCC(=O)N1[C@@H](CO)[C@@H](c2ccc(-c3ccccc3C)cc2)C12CN(C(C)=O)C2	-5	-3	-2.0
COc1ccccc1S(=O)(=O)N1C[C@@H]2N[C@H](C1)C2c1ccc(-c2cccc(C)c2)cc1 (stereo partly specified)	?	/	/
C[C@@H]1CCCCO[C@@H](CN(C)CC2CCCCC2)[C@H](C)CN([C@@H](C)CO)C(=O)c2cc(NC(=O)C3CCCCC3)ccc2O1	0	-1	1.6
Cc1ccccc1S(=O)(=O)N1CC(=O)N2[C@H](CO)[C@H](c3ccc(C#CC4CC4)cc3)[C@@H]2C1	-4	-2	-1.3
CCCC(=O)Nc1ccc2c(c1)C(=O)N(C)[C@H]1CC[C@H](CC(=O)Nc3ccc(F)cc3)O[C@@H]1CO2	3	4	-0.8
C[C@@H]1CN([C@@H](C)CO)C(=O)c2cc(/C=C/c3ccccc3)cnc2O[C@@H]1CN(C)S(=O)(=O)c1ccccc1F	-2	-2	0.6
